Bioassay records (PubChem)
Ecoli growth: E. coli growth inhibition. Escherichia coli growth, OD600, 23 h; hits give low values. OD600 absorbance (concentration not given with the values). 330,000 compounds, 0.21% hits;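 active means OD600 absorbance below the run mean of sample wells minus 3.6 SD, in any replicate, cut at about 0.56 in these data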;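 further: stock transfer was 300 nL into about 60 µL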
ALR inh: inhibitors of human sulfhydryl oxidase ALR; purified ALR, DTT oxidation, H2O2 HRP-luminol luminescence; AID 485317; inhibition, % (no concentration beside the values); 290,000 compounds, 3.8% hits; P55789;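 active means mean and each replicate at 75% or more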;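 further: stock transfer was 7.5 nL into about 7.5 µL; 0% = neutral wells and 100% = wells with inactivated enzyme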
Beta2AR agonist: agonists of human beta-2 adrenergic receptor inducing internalization; P07550; Am2.2-beta2AR cells, FAP receptor internalization, flow cytometry; reference of the scale not given here; response, % (test concentration not listed); 340,000 compounds, 0.43% hits;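 active means response above a set limit, near 3 SD of response in nonfluorescent compounds, cut at about 42% in these data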;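 further: stock transfer was 100 nL into about 11 µL; a reference agonist was the positive control; negative values mostly stem from fluorescent compounds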
HNF4A DNA FP: change in binding of human HNF4 alpha to DNA. HNF4a-FITC DNA binding, fluorescence polarization, 1 h. activity change, % at 10 µM. P41235. 360,000 compounds, 0.3% hits. AID 1224865; in the data active means activity change above about 30%, passing the limit was not always enough;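 further: controls were the assay level and a saturating level of protein; the project sought stronger binding though the title names inhibitors; some compounds called inactive have numbers as strong as hits; positive values seem to mean higher polarization but the record does not say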
Target sequence (P41235 whole entry, looked up): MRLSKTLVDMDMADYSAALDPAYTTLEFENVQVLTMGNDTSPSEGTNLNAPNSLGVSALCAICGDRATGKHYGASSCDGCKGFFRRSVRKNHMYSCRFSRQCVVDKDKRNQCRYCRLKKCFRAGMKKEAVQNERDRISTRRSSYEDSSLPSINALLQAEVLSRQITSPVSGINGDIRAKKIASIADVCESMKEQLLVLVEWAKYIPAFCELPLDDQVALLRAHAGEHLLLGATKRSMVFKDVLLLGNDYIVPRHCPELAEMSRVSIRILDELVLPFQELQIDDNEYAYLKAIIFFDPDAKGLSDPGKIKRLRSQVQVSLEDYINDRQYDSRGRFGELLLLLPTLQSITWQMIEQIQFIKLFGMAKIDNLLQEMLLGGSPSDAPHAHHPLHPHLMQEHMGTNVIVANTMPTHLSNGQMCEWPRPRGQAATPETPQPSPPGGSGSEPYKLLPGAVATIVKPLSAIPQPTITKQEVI
FGF22 binding: binders of recombinant human FGF22 by thermal shift; Q9HCT0; 340,000 compounds, 1.5% hits; SYPRO orange fluorescence; percent of sucrose octasulfate shift, DMSO zero; calls only at 9.99 µM;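 active means melting point raised past a set limit in the mean and every replicate; three in four hits are not shown here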
Target sequence (Q9HCT0 whole entry, looked up): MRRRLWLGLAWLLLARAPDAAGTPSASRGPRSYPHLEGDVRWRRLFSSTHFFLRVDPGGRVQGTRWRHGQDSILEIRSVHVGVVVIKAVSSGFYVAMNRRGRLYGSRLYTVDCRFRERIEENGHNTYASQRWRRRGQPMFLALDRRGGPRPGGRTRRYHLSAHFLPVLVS
UCH37 inh: inhibitors of human deubiquitinating enzyme UCH37; Q9Y5K5; purified proteasome/UCH37, Ub-AMC cleavage fluorescence; inhibition, % (no concentration beside the values); 330,000 compounds, 0.33% hits; AID 588478;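 active means mean of two replicates above 20%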;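 further: 0% = compound-free wells with enzyme and 100% = wells lacking proteasome; stock transfer was 100 nL into about 20 µL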
Target sequence (Q9Y5K5 whole entry, looked up): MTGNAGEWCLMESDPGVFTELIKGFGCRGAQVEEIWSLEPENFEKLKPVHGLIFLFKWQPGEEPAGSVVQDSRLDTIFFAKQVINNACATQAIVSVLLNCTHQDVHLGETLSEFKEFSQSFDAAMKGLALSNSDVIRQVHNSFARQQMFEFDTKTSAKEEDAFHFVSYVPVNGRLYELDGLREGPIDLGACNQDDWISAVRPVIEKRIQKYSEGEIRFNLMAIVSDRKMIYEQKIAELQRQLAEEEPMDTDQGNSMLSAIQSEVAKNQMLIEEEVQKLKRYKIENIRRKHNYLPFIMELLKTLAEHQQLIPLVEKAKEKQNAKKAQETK
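Material: human UCH37 enzyme supplied as purified proteasome complex. Measure: % inhibition of Ub-AMC cleavage fluorescence. Medium: pH 7.4 Tris-HCl (50 mM) with ovalbumin, ATP-MgCl2, DTT. Times: 30 min preincubation with enzyme, 25 min cleavage at room temperature. Detection: AMC fluorescence intensity at 355/460 nm.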
Ecoli rRNA inh: inhibitors of bacterial rRNA selective over humanized ribosomes; E. coli WT GFP vs humanized-ribosome RFP mutants, fluorescence, 24 h; hits give low values; DMSO median 0, no signal -100; GFP signal change (wild-type ribosome), % (no concentration beside the values); 350,000 compounds, 1.6% hits;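 active means significant combined selectivity score with lowered wild-type GFP, culture density cut under 30%, mutant RFP and density less affected; inactive means any of these conditions unmet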; further: one replicate is shown; some compounds called inactive have numbers as strong as hits
Ecoli rRNA inh OD600: second read-out of Ecoli rRNA inh, no call of its own (marks repeat the call); OD600 change, %; measured here: OD600 growth;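 optical density of the mix in the first replicate; 0 = DMSO median and -100 = no signal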
Ecoli rRNA inh RFP: second read-out of Ecoli rRNA inh, no call of its own (marks repeat the call); RFP signal change, %; measured here: RFP humanized mutant strains;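 first replicate; 0 = DMSO median and -100 = no signal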
Starred values were filed as active, the others as inactive; i = inactive; nt = not tested or not shown; & = joins results of further samples.

Start of the data: the first 11 entries (preview)
SMILES	Ecoli growth	ALR inh	Beta2AR agonist	HNF4A DNA FP	FGF22 binding	UCH37 inh	Ecoli rRNA inh	Ecoli rRNA inh OD600	Ecoli rRNA inh RFP
CCCCCCCCN1C(=O)[C@H](CC(=O)NCc2cccc3ccccc23)C[C@@]2(C(=O)OCC)CCC=C12	nt	nt	nt	-0.3	i	nt	32	15	8.8
CC1(C)Cc2c(sc3c2c2ncnn2c2nnc(SCC(=O)NCc4ccco4)n32)CO1	0.7	5	3	0.0	nt	1.5	nt	nt	nt
CCCCCCCCOC(=O)CCc1c(C)[nH]c(=S)[nH]c1=O	0.7	-1	4	-0.6	nt	-3.3	nt	nt	nt
CCOC(=O)C1(C)CCCCN1C(=O)c1ccnc(Cl)c1 (stereo unspecified)	nt	nt	nt	4.3	i	nt	4	6	-0.6
COc1ccccc1/C=C1/SC(=S)N(C(C)C(=O)NC2C=CS(=O)(=O)C2)C1=O (stereo unspecified)	0.68	0	5	-3.1	i	8.3	-11	-18	-1.6
Cc1ccc(Cn2ncc3c(N4CCN(C)CC4)ncnc32)cc1	0.69	12	-2	5.3	i	5.0	-2	-7	-0.6
CN(C1CCCCC1)S(=O)(=O)c1ccc2[nH]c(=O)oc2c1	0.64	nt	-9	-1.7	i	5.3	-9	-9	3.0
CC(C)(C)C1CCc2c(sc3c2C(=O)NC(c2ccco2)N3)C1 (stereo unspecified)	0.7	-28	-14	7.7	i	-47	-15	2	7.1
COc1ccc(CCNC(=O)c2cc(C(C)C)on2)cc1OC	0.78	-18	2	-0.3	i	3.7	1	-8	-11
COc1cccc(C(=O)c2c(-c3ccccc3)ncc3cc(OC)c(OC)cc23)c1	0.68	nt	-6	2.7	i	2.7	-1	-9	-4.2
COc1ccc(Nc2nc(C)nc3c2oc2ccccc23)cc1	0.65	32	11	-0.4	i	-10	-7	-48	0.6

All compounds of this part, from the start:
SMILES	Ecoli growth	ALR inh	Beta2AR agonist	HNF4A DNA FP	FGF22 binding	UCH37 inh	Ecoli rRNA inh	Ecoli rRNA inh OD600	Ecoli rRNA inh RFP
CCCCCCCCN1C(=O)[C@H](CC(=O)NCc2cccc3ccccc23)C[C@@]2(C(=O)OCC)CCC=C12	nt	nt	nt	-0.3	i	nt	32	15	8.8
CC1(C)Cc2c(sc3c2c2ncnn2c2nnc(SCC(=O)NCc4ccco4)n32)CO1	0.7	5	3	0.0	nt	1.5	nt	nt	nt
CCCCCCCCOC(=O)CCc1c(C)[nH]c(=S)[nH]c1=O	0.7	-1	4	-0.6	nt	-3.3	nt	nt	nt
CCOC(=O)C1(C)CCCCN1C(=O)c1ccnc(Cl)c1 (stereo unspecified)	nt	nt	nt	4.3	i	nt	4	6	-0.6
COc1ccccc1/C=C1/SC(=S)N(C(C)C(=O)NC2C=CS(=O)(=O)C2)C1=O (stereo unspecified)	0.68	0	5	-3.1	i	8.3	-11	-18	-1.6
Cc1ccc(Cn2ncc3c(N4CCN(C)CC4)ncnc32)cc1	0.69	12	-2	5.3	i	5.0	-2	-7	-0.6
CN(C1CCCCC1)S(=O)(=O)c1ccc2[nH]c(=O)oc2c1	0.64	nt	-9	-1.7	i	5.3	-9	-9	3.0
CC(C)(C)C1CCc2c(sc3c2C(=O)NC(c2ccco2)N3)C1 (stereo unspecified)	0.7	-28	-14	7.7	i	-47	-15	2	7.1
COc1ccc(CCNC(=O)c2cc(C(C)C)on2)cc1OC	0.78	-18	2	-0.3	i	3.7	1	-8	-11
COc1cccc(C(=O)c2c(-c3ccccc3)ncc3cc(OC)c(OC)cc23)c1	0.68	nt	-6	2.7	i	2.7	-1	-9	-4.2
COc1ccc(Nc2nc(C)nc3c2oc2ccccc23)cc1	0.65	32	11	-0.4	i	-10	-7	-48	0.6
CC(C)[C@H](NC(=O)c1cc2cc(Cl)ccc2n1C)C(=O)N1CCC(C(=O)O)CC1	0.69	-1	4	-0.3	i	1.2	5	12	-0.7
COc1cc(NC(=O)C2CCCCN2)ccc1OCC(C)C (stereo unspecified)	nt	-11	nt	-0.9	nt	2.4	nt	nt	nt
c1ccc(CCCCNCC2COc3ccccc3O2)cc1 (stereo unspecified)	0.65	-10	-4	1.6	i	2.0	-1	-8	-0.1
O=C(O)CC/C(=C\c1cc2c(cc1Br)OCO2)c1nc2ccccc2s1	0.67	6	-3	-1.4	i	-2.6	-34	-47	-5.5
O=C(N[C@H](Cc1ccc(Cl)cc1)C(=O)O)OCC1c2ccccc2-c2ccccc21	0.81	-11	-5	2.4	i	5.4	-41	-55	12
OC(COCc1cccs1)CN1CCCCCC1 (stereo unspecified)	0.75	-1	8	-0.5	nt	1.1	nt	nt	nt
CN=C1SC(CC(=O)Nc2cccc(C(F)(F)F)c2)C(=O)N1C (stereo unspecified)	0.68	3	-3	0.2	nt	3.4	nt	nt	nt
O=C(Cc1ccccc1)NN1C(=O)C2C3C=CC(C4CC34)C2C1=O (stereo unspecified)	0.71	-1	-2	2.4	nt	2.0	nt	nt	nt
O=C(O)c1cccc(NC(=O)c2ccc3c(c2)C(=O)N(c2ccccc2)C3=O)c1	0.68	16	2	-5.3	i	-0.8	17	18	5.4
O=C(CN1CCC(c2nc3ccccc3[nH]2)CC1)NCc1ccc2c(c1)OCO2	0.7	-6	-5	0.8	nt	2.1	nt	nt	nt
Cc1cccc(C)c1-n1nnnc1C(c1cccc2ccccc12)N1CCN(C/C=C/c2ccccc2)CC1 (stereo unspecified)	nt	nt	nt	4.7	i	nt	4	12	0.9
Cc1ccc(NC(=O)c2ccccc2NS(=O)(=O)c2ccc(F)cc2)cc1S(=O)(=O)N1CCCCC1	0.62	3	8	-0.9	i	-25	-52	-74	-20
C(=NN1CCCCCC1)c1ccccc1	0.66	nt	1	-0.7	i	3.0	nt	nt	nt
Cc1ccc(S(=O)(=O)N2CCC(C(=O)Nc3nnc(-c4ccc(F)cc4)s3)CC2)cc1	0.69	1	65*	-0.3	nt	5.1	nt	nt	nt

Next records follow.
SMILES	Ecoli growth	ALR inh	Beta2AR agonist	HNF4A DNA FP	FGF22 binding	UCH37 inh	Ecoli rRNA inh	Ecoli rRNA inh OD600	Ecoli rRNA inh RFP
C/C(CCc1ccco1)=N/NC(=O)CCC(=O)Nc1ccc(Br)cc1	nt	0	-5	-5.5	i	nt	-1	0	0.3
CC(CC(=O)Nc1nc2ccccc2[nH]1)c1ccccc1 (stereo unspecified)	0.67	-9	0	-1.1	nt	-1.2	nt	nt	nt
C#CCOCCOCCOCCNc1nc(N2CCN(C(=O)[C@H]([C@@H](C)CC)n3cc([C@@H](N)Cc4ccc(O)cc4)nn3)CC2)nc(N2CCN(C(=O)[C@H](Cc3ccc(O)cc3)n3cc([C@@H](N)CC(C)C)nn3)CC2)n1	nt	5	0	-3.5	i	-0.5	-7	5	5.1
CCCCn1nnc(NC(=O)COc2ccc(Cl)c(C)c2)n1	0.7	-3	-1	3.2	nt	0.8	nt	nt	nt
C[C@@H]1CN([C@@H](C)CO)C(=O)c2ccccc2-c2ccccc2CO[C@@H]1CN(C)S(=O)(=O)c1ccc(C(F)(F)F)cc1	nt	nt	nt	-0.3	i	nt	-7&1	-10&-8	1.2&0.0
CCN(CC)c1ccc(NC(=O)COc2ccccc2C#N)cc1S(=O)(=O)Nc1ccc(OC)cc1	0.75	-4	-1	0.4	nt	3.7	nt	nt	nt
Cc1ccc(N(CC(=O)NC(C)(C)C)C(=O)CCC(=O)Nc2nccs2)c(C)c1	0.69	-4	5	4.3	i	4.3	2	4	-3.3
CCCCc1nc2cc(C(=O)N3CCC(OCCOC)CC3)ccc2o1	0.6	-3	9	-6.0	i	-0.9	14	18	2.1
COCCNC(=S)N/N=C(\C)c1ccc(OC)cc1	nt	nt	-4	0.0	i	nt	7	1	0.5
O=C1NC2(CCCCCC2)N=C1c1ccc(Br)cc1	0.65	nt	-8	-4.6	i	0.9	9	-2	2.8
COc1ccc(C2C(C(N)=O)=C(C)Nc3nc(CCCO)nn32)cc1 (stereo unspecified)	0.71	7	4	2.9	i	2.3	13	1	-6.0
COc1ccc(CCNS(=O)(=O)c2ccc3c(c2)NC(=O)CO3)cc1OC	0.67	6	0	2.9	i	5.3	-1	6	-1.7
Cc1ccc(C2CC(c3ccc(NS(C)(=O)=O)cc3)=NN2C(=O)c2ccco2)cc1 (stereo unspecified)	0.68	-10	9	1.1	nt	-11	nt	nt	nt
Cc1nc(N2CCOCC2)nc(N2CCCCC2C)c1[N+](=O)[O-] (stereo unspecified)	nt	nt	3	0.1	i	nt	-42	-36	-6.7
COc1ccc(C)cc1NC(=O)c1cc(S(=O)(=O)N2CCOCC2)cn1C	0.78	-1	3	0.5	i	0.7	0	1	0.0
CN(C)CCNC(=O)c1ccc(Cl)s1	0.64	2	5	-3.0	i	2.9	12	12	-5.3
O=S(=O)(c1ccccc1)N1N=C(c2ccc(Br)cc2)CC1c1ccco1 (stereo unspecified)	0.65	-3	6	3.5	i	1.4	-2	1	5.7
Cc1cc(N2C(=O)C3C4c5ccccc5C(c5ccccc54)C3C2=O)no1 (stereo unspecified)	0.68	-14	-3	1.0	nt	1.3	nt	nt	nt
Cc1cccc(N2CN(Cc3ccco3)CNC2=S)c1	0.69	-10	0	1.9	nt	-0.7	nt	nt	nt
CCOC(=O)N1CCN(C(=O)/C=C/c2ccc(C(C)(C)C)cc2)CC1	0.63	-12	5	3.8	i	4.5	-21	-19	-1.2
CC(=O)Oc1cccc(N2C(=O)C3C4C=CC(C4=C(C)C)C3C2=O)c1 (stereo unspecified)	0.72	-8	-1	-1.9	nt	0.5	nt	nt	nt
Nc1ccc(C(=O)NC2CCSc3ccccc32)cc1[N+](=O)[O-] (stereo unspecified)	0.66	0	8	-3.3	i	4.1	-6	-4	0.3
O=C(CC(NS(=O)(=O)c1ccc(Cl)cc1)c1ccco1)NCc1ccco1 (stereo unspecified)	0.71	-6	4	0.3	nt	3.3	nt	nt	nt
CCC1CCCCN1CCNC(=O)C1CCCN(S(=O)(=O)c2cccc3nsnc23)C1 (stereo unspecified)	0.7	-3	-4	-1.2	i	6.5	4	-2	-3.1
CC(C)c1ccc(NC(=O)CCN2C(=O)c3ccc([N+](=O)[O-])cc3C2=O)cc1	0.73	0	-14	-0.1	nt	6.0	nt	nt	nt
CCOC(=O)C1CCN(C(=O)Cc2ccc(-c3ccccc3)cc2)CC1	0.69	-6	10	1.8	i	6.2	-21	-36	-12
Cc1ccccc1OC(=O)n1c(=S)oc2cc(Cl)ccc21	0.6	83*	-7	0.9	nt	7.7	nt	nt	nt
CCc1nc2oc3ccccc3c(=O)c2c(=O)n1-c1ccc(C)cc1	0.7	-14	2	-13	i	4.6	-42	-51	-4.5
CCn1c(N2CCN(CC(=O)Nc3cccc(C)c3C)CC2)nc2ccccc21	0.71	-15	-1	-0.6	nt	3.4	nt	nt	nt
CCOC(=O)C1CCN(C(=O)Cn2cc(C(=O)OC)c3ccccc32)CC1	0.73	2	1	-3.5	i	-4.1	7	-4	0.3

An excerpt; rates above refer to the full screens.
